Assay outcomes deposited in PubChem BioAssay by Fisher Drug Discovery Resource Center.
NPYLR7 agonist = agonists of mosquito NPYLR7 receptor, primary screen, cell-based, Aedes aegypti, calcium fluorescence, mosquito biting behavior; Aedes aegypti neuropeptide Y-like receptor 7 (NPYLR7); HEK293T NPYLR7/Galpha15, GCaMP6s calcium fluorescence; activation, % at 10 µM; 0.15% of 270,000 active; AID 1259423, 2018; in the data active = activation above about 40%;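 note: 0% = vehicle and 100% = reference agonist at the receptor; some compounds past the cut are filed as inactive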
NPYLR7 agonist max-min = second read-out of NPYLR7 agonist, no call of its own (marks repeat the call); activation, %; measured here: Max-Min RFU normalised activation; some inactives read as strong as hits;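 span of the calcium signal over five minutes; 0% = vehicle and 100% = native peptide agonist; compound fluorescence can raise it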
* hit, by the source's call; & = joins results of further samples.

How did CCn1cc(C(=O)N2CCc3ccccc3C2)c2nn(-c3ccccc3)c(=O)c-2c1 do in these assays?
NPYLR7 agonist: 7; NPYLR7 agonist max-min: 5

How did O=C(Cn1c(CO)cnc1SCc1ccc(C(F)(F)F)cc1)NC1CC1 do in these assays?
NPYLR7 agonist: 6; NPYLR7 agonist max-min: 1

How did CC1CN(C(=O)c2cc3ccsc3n2CCCc2ccccc2)CCN1C(=O)Nc1ccccc1F (stereo not drawn) do in these assays?
NPYLR7 agonist: 1; NPYLR7 agonist max-min: 9

How did CC(=O)c1ccc(S(=O)(=O)NCCn2nc(-c3cccnc3)ccc2=O)cc1 do in these assays?
NPYLR7 agonist: 7; NPYLR7 agonist max-min: -2

How did CC(CCCC(C)(C)O)CCN1CCC(Cc2nnc(CO)n2C)CC1 (stereo not drawn) do in these assays?
NPYLR7 agonist: 0; NPYLR7 agonist max-min: -3

How did COc1cccc(CN2CCCC3(CCN(C(=O)c4cccc(C)n4)C3)C2)c1OC (stereo not drawn) do in these assays?
NPYLR7 agonist: 16; NPYLR7 agonist max-min: 3

How did N#Cc1cc2[nH]c(=O)c(=O)[nH]c2cc1[N+](=O)[O-] do in these assays?
NPYLR7 agonist: -12&-13; NPYLR7 agonist max-min: -16&-18

How did CCCCc1ccc(S(=O)(=O)c2cnc(SCC(=O)Nc3cccc(F)c3)[nH]c2=O)cc1 do in these assays?
NPYLR7 agonist: -2; NPYLR7 agonist max-min: -7

Results for O=S(=O)(NCCNc1cc(-n2cccn2)ncn1)c1ccc(OC(F)(F)F)cc1 ?
NPYLR7 agonist: -6; NPYLR7 agonist max-min: -12

What do the screens show for `COc1ccccc1-n1c(=O)n(C(C)C)c(=O)c2c1ncn2Cc1ccccc1C#N`?
NPYLR7 agonist: 5; NPYLR7 agonist max-min: 2

Results for Cc1ccc(Cc2nsc(Oc3ccc(CC(=O)NC(Cc4ccccc4)c4ccccc4)cc3)n2)cc1 (stereo not drawn) ?
NPYLR7 agonist: 15; NPYLR7 agonist max-min: 14

What do the screens show for `CCC1CCCCC1NC(=O)c1cnc2c(c1)c(=O)n(C)c(=O)n2C` (stereo not drawn)?
NPYLR7 agonist: -27; NPYLR7 agonist max-min: -24

Results for O=C(Nc1cnc2ccccc2c1)c1cc2nc(-c3cccs3)cc(C(F)(F)F)n2n1 ?
NPYLR7 agonist: -9; NPYLR7 agonist max-min: -14

How did COc1ccc(/C=C/C(=O)Nc2cc(-c3onc4c3CCCC4)ccc2C)c(Cl)c1OC do in these assays?
NPYLR7 agonist: -5; NPYLR7 agonist max-min: -15

What do the screens show for `Cc1ccccc1N=c1sc(C2=c3ccccc3=NC2=O)c(O)n1-c1ccccc1C`?
NPYLR7 agonist: -6; NPYLR7 agonist max-min: -10

How did CCCCSc1nnc2c(n1)OC(c1ccccc1Cl)Nc1ccccc1-2 (stereo not drawn) do in these assays?
NPYLR7 agonist: -12; NPYLR7 agonist max-min: -11

How did COc1ccccc1CCNC(=O)C(C1CCCC1)N1CCN(C(=O)c2ccccc2Cl)CC1 (stereo not drawn) do in these assays?
NPYLR7 agonist: -9; NPYLR7 agonist max-min: -4

What do the screens show for `Cc1cccc(CO[C@]2(C(=O)NCc3ccco3)CC(OCc3cccc(C(F)(F)F)c3)[C@H](O)[C@H](O)C2)c1` (stereo partly drawn)?
NPYLR7 agonist: 28; NPYLR7 agonist max-min: 29

How did COC(=O)c1c(NC(=O)COC(=O)c2[nH]c(C)c(C(C)=O)c2C)sc2c1CCCCC2 do in these assays?
NPYLR7 agonist: 12; NPYLR7 agonist max-min: 5

How did O=C(Nc1ccc(-c2nc3ccccc3c(=O)o2)cc1)c1cccs1 do in these assays?
NPYLR7 agonist: -9; NPYLR7 agonist max-min: -14

How did CC1Cc2ccccc2N1C(=O)c1ccc(NC(=O)c2ccco2)cc1 (stereo not drawn) do in these assays?
NPYLR7 agonist: 2; NPYLR7 agonist max-min: -1

How did CCOC(=O)C1(Cc2ccccc2)CCCN(C(=O)c2ccccc2SC)C1 (stereo not drawn) do in these assays?
NPYLR7 agonist: 1&-7; NPYLR7 agonist max-min: -3&-13

What do the screens show for `COc1ccc(C(=O)NC(Cc2ccccc2)c2nnc(SCc3ccc(F)cc3)n2-c2ccc([N+](=O)[O-])cc2)c(OC)c1` (stereo not drawn)?
NPYLR7 agonist: 4; NPYLR7 agonist max-min: 14

What do the screens show for `CCCC(=O)OCC(O)CNC(c1nc(-c2ccc([N+](=O)[O-])cc2)no1)C(C)C` (stereo not drawn)?
NPYLR7 agonist: 12; NPYLR7 agonist max-min: 4

An excerpt taken from the entries so far, as a working copy:
Results for O=C(Nc1cnc2ccccc2c1)c1cc2nc(-c3cccs3)cc(C(F)(F)F)n2n1 ?
NPYLR7 agonist: -9; NPYLR7 agonist max-min: -14

How did COc1ccc(/C=C/C(=O)Nc2cc(-c3onc4c3CCCC4)ccc2C)c(Cl)c1OC do in these assays?
NPYLR7 agonist: -5; NPYLR7 agonist max-min: -15

Back to the main list; the 3 compounds before the break are reprinted first.
How did CCOC(=O)C1(Cc2ccccc2)CCCN(C(=O)c2ccccc2SC)C1 (stereo not drawn) do in these assays?
NPYLR7 agonist: 1&-7; NPYLR7 agonist max-min: -3&-13

What do the screens show for `COc1ccc(C(=O)NC(Cc2ccccc2)c2nnc(SCc3ccc(F)cc3)n2-c2ccc([N+](=O)[O-])cc2)c(OC)c1` (stereo not drawn)?
NPYLR7 agonist: 4; NPYLR7 agonist max-min: 14

What do the screens show for `CCCC(=O)OCC(O)CNC(c1nc(-c2ccc([N+](=O)[O-])cc2)no1)C(C)C` (stereo not drawn)?
NPYLR7 agonist: 12; NPYLR7 agonist max-min: 4

Results for Cc1ccc2ccccc2c1COC(=O)CC(CC(N)=O)c1ccccc1 (stereo not drawn) ?
NPYLR7 agonist: -1; NPYLR7 agonist max-min: -6

What do the screens show for `Cc1ccc(-c2ccc(/C=C3/SC(=S)N(CC(=O)O)C3=O)o2)cc1[N+](=O)[O-]`?
NPYLR7 agonist: -5; NPYLR7 agonist max-min: -12

Results for Cc1nn(C)c(C)c1N1C(=O)c2cccc3c([N+](=O)[O-])ccc(c23)C1=O ?
NPYLR7 agonist: 5; NPYLR7 agonist max-min: -1

How did C=CCN1CC(c2nc3ccccc3n2Cc2ccc(C(C)(C)C)cc2)CC1=O (stereo not drawn) do in these assays?
NPYLR7 agonist: 1; NPYLR7 agonist max-min: -6

How did CCOC(=O)c1nc2ccccc2nc1N1CCN(S(=O)(=O)c2cccc([N+](=O)[O-])c2)CC1 do in these assays?
NPYLR7 agonist: 25; NPYLR7 agonist max-min: 21

What do the screens show for `COc1ccc(C)cc1NC(=O)c1cnc2c(ccn2C2CCCCC2)c1`?
NPYLR7 agonist: 4; NPYLR7 agonist max-min: 1

How did COc1ccccc1OCC(=O)Nn1cnc2c(cnn2-c2ccc(C)c(C)c2)c1=O do in these assays?
NPYLR7 agonist: 2; NPYLR7 agonist max-min: -1

Results for CCOC(=O)[C@H](CCc1ccccc1)N[C@@H](C)C(=O)N1Cc2cc(OC)c(OC)cc2C[C@H]1C(=O)O ?
NPYLR7 agonist: -10; NPYLR7 agonist max-min: -14

How did O=C(CSc1nnc(-c2cccs2)n1CC1CCCO1)N1CCCC1 (stereo not drawn) do in these assays?
NPYLR7 agonist: 5; NPYLR7 agonist max-min: 4

Results for CC1(C)CCC(C)(C)c2cc(C(=O)NC(C(N)=O)C(N)=O)ccc21 ?
NPYLR7 agonist: -4; NPYLR7 agonist max-min: -6

What do the screens show for `CN1CCCNC(=O)C12CCN(C(=O)c1nc3ccccc3[nH]1)CC2`?
NPYLR7 agonist: 21; NPYLR7 agonist max-min: 11

Results for CCOC(=O)c1nn(-c2ccc(F)cc2)c(=O)c2c(NC(=O)Cc3cccc(C)c3)scc12 ?
NPYLR7 agonist: 6; NPYLR7 agonist max-min: 3

What do the screens show for `Cc1c(C(=O)N2CCC(N3CCCCC3=O)CC2)cnn1-c1ccccc1`?
NPYLR7 agonist: -1; NPYLR7 agonist max-min: -3

What do the screens show for `COC(=O)c1ccc(Cn2nc(C)c3cnn(-c4ccc(C)c(C)c4)c3c2=O)o1`?
NPYLR7 agonist: 9; NPYLR7 agonist max-min: 6

How did CCc1nc(N(CCOC)CCC(=O)NCc2ccco2)c2ccc(Cl)cc2n1 do in these assays?
NPYLR7 agonist: -7; NPYLR7 agonist max-min: -6

How did CC(=O)Nc1cccc2c1C(=O)c1ccccc1C2=O do in these assays?
NPYLR7 agonist: -5; NPYLR7 agonist max-min: -7

Results for COc1ccc(NC(=O)C(=O)c2ccco2)c(NC(=O)C(C)C)c1 ?
NPYLR7 agonist: -3; NPYLR7 agonist max-min: -5

How did Cc1csc(NC(=O)C2(C)CCN2C(C)C)c1C#N (stereo not drawn) do in these assays?
NPYLR7 agonist: -6; NPYLR7 agonist max-min: -7

How did Cc1ccc(S(=O)(=O)n2c(N)nc3ccccc32)cc1 do in these assays?
NPYLR7 agonist: 0; NPYLR7 agonist max-min: -5

How did O=C1OC(c2cccc([N+](=O)[O-])c2)=N/C1=C/C(Cl)=C/c1ccccc1 do in these assays?
NPYLR7 agonist: -1; NPYLR7 agonist max-min: 1

What do the screens show for `COc1ccc(S(=O)(=O)Nc2cccc(Br)c2)cc1OC`?
NPYLR7 agonist: 5; NPYLR7 agonist max-min: 2

What do the screens show for `CC(NC(=O)CN1C(=O)C2CCCCC2C1=O)c1ccc(Cl)s1` (stereo not drawn)?
NPYLR7 agonist: 9; NPYLR7 agonist max-min: 6

What do the screens show for `O=C(OCc1cc(=O)oc2ccc3ccccc3c12)C1=CC=CN2CCS(=O)(=O)N=C12`?
NPYLR7 agonist: 1; NPYLR7 agonist max-min: -6

What do the screens show for `CO[C@@H]1CC[C@H]2C[C@@H]1[C@@H](Oc1ccccn1)CN2Cc1ccc(F)cc1`?
NPYLR7 agonist: -7; NPYLR7 agonist max-min: -1

How did O=C(NC1CCC(NC(=O)[C@H]2CCCN2C(=O)/C=C/c2ccccc2)CC1)c1ccccc1 (stereo partly drawn) do in these assays?
NPYLR7 agonist: -2; NPYLR7 agonist max-min: 0

What do the screens show for `O=C(NCc1nnnn1C1CCCCC1)Nc1cccc(Cl)c1`?
NPYLR7 agonist: -2; NPYLR7 agonist max-min: -2

How did COc1ccc(C(=O)N2CCN(CC3CCOC3)CC2)cc1 (stereo not drawn) do in these assays?
NPYLR7 agonist: 7; NPYLR7 agonist max-min: 8

How did CCCc1noc(C(C)N2CCCN(C(=O)c3ccccc3Cl)CC2)n1 (stereo not drawn) do in these assays?
NPYLR7 agonist: 10; NPYLR7 agonist max-min: 7

Results for Cc1cccc2[nH]c(CNC(=O)c3ccc4c(c3)nnn4C)nc12 ?
NPYLR7 agonist: 10; NPYLR7 agonist max-min: 2

What do the screens show for `CCCn1c(=O)[nH]c(=O)c2c3c(cnc21)C(=O)CC(c1ccccc1)C3` (stereo not drawn)?
NPYLR7 agonist: -2; NPYLR7 agonist max-min: 26

What do the screens show for `CCC(=O)C1=C(c2ccccc2)N(C(=O)CC)n2c(nnc2-c2ccc(OC)cc2)S1`?
NPYLR7 agonist: 1; NPYLR7 agonist max-min: -1

What do the screens show for `COc1ccc(-c2nc(COc3ccc(Cl)cc3C(N)=O)no2)cc1`?
NPYLR7 agonist: 10; NPYLR7 agonist max-min: 3

What do the screens show for `Cc1ccc2c(c1)CCN1C(=O)CN(C(=S)Nc3ccc4c(c3)OCO4)CC21` (stereo not drawn)?
NPYLR7 agonist: 37; NPYLR7 agonist max-min: 26

Results for O=C(Cn1cnc2c(cnn2C2CCS(=O)(=O)C2)c1=O)c1ccc2c(c1)OCCO2 (stereo not drawn) ?
NPYLR7 agonist: 6; NPYLR7 agonist max-min: 1

Results for Cc1cccc(-c2[nH]n(-c3ccc(F)cc3)c(=O)c2-c2ccc(N)cc2)c1 ?
NPYLR7 agonist: -2; NPYLR7 agonist max-min: 1

How did COc1ccc(NC2CCCN(C(=O)CCC(F)(F)F)C2)cc1 (stereo not drawn) do in these assays?
NPYLR7 agonist: 0; NPYLR7 agonist max-min: -3

How did CC(=O)NCCSc1nnnn1-c1c(C)cccc1C do in these assays?
NPYLR7 agonist: -14; NPYLR7 agonist max-min: -10

How did CC(C)OCC(=O)N1CCN(C(C)C(=O)NC2CCCC2)CC1 (stereo not drawn) do in these assays?
NPYLR7 agonist: 7; NPYLR7 agonist max-min: 5

What do the screens show for `O=C(COCC(=O)NCc1ccco1)NCc1ccco1`?
NPYLR7 agonist: 7; NPYLR7 agonist max-min: 5

What do the screens show for `O=C(CSc1ccc(-c2ccc(-n3cccn3)cc2)nn1)NC1CCCCC1`?
NPYLR7 agonist: -8; NPYLR7 agonist max-min: -10

How did CCn1c(=O)c2c(nc3oc(C)c(C)n32)n(C)c1=O do in these assays?
NPYLR7 agonist: -1; NPYLR7 agonist max-min: 2

Results for CSCC(C)N(C)CC(=O)Nc1ccc(C(C)(C)C)cc1 (stereo not drawn) ?
NPYLR7 agonist: 7; NPYLR7 agonist max-min: 6

Results for CC(C)(C)C(=O)CSc1nnc(-c2ccncc2)n1Cc1ccccc1 ?
NPYLR7 agonist: -4; NPYLR7 agonist max-min: -7

Four entries drawn at random from those above, as already listed:
Results for CSCC(C)N(C)CC(=O)Nc1ccc(C(C)(C)C)cc1 (stereo not drawn) ?
NPYLR7 agonist: 7; NPYLR7 agonist max-min: 6

What do the screens show for `O=C(COCC(=O)NCc1ccco1)NCc1ccco1`?
NPYLR7 agonist: 7; NPYLR7 agonist max-min: 5

What do the screens show for `O=C(CSc1ccc(-c2ccc(-n3cccn3)cc2)nn1)NC1CCCCC1`?
NPYLR7 agonist: -8; NPYLR7 agonist max-min: -10

How did CC(C)OCC(=O)N1CCN(C(C)C(=O)NC2CCCC2)CC1 (stereo not drawn) do in these assays?
NPYLR7 agonist: 7; NPYLR7 agonist max-min: 5

Some of the compounds tested, so the mix of outcomes need not match the whole.
